# Bioassay records deposited in PubChem by National Center for Advancing Translational Sciences (NCATS).
# Rango release inh = inhibitors of RanGTP-induced Rango-importin beta complex dissociation | Biochemical FRET Rango-importin beta, RanGTP-induced dissociation | O95149+P62826 | actives 0.071% (n = 340,000) | Potency, µM (series often up to 46.1 µM), for inactives: top-dose activity change, negative = inhibition; active means falling FRET ratio curve, often poorly fitted, with flat reads before Ran was added; inconclusive means other falling curves, or compound fluorescence or quenching; inactive means flat or rising ratio curve;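 also: potency is read from the fitted curve at half-maximal effect; % of control where 0% means no effect; nearly all actives have a fitted effect of over 45% in size; -100% = wells without RanGTP and RCC1; the record marks most hits as doubtful in a second field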
#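 Compounds preincubate 5 min with complex of recombinant Rango and importin beta in PBS with 1 mM DTT. Ran (0.6 uM) loaded with 2 mM GTP plus 0.2 uM RCC1 starts dissociation; FRET is recorded 45 min later.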
# miR-21 reporter = miR-21 reporter, rising signal. AID 2288. HeLa miR-21 FLuc reporter, luciferase, 48 h. 340,000 tested, under 10 active. Potency, µM (series often up to 38.3 µM), for inactives: top-dose reporter change, positive = more light; active = well fitted rising curve with a large enough effect; inconclusive = small, poorly fitted or top-dose-only effect; inactive = no such curve, though single readings can be large or run the other way;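 also: % of control where 0% means no effect; miR-21 action dims this reporter so a rising signal means less miR-21 action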
#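 HeLa cells endogenously expressing miR-21, stably carrying CMV-driven firefly luciferase with a downstream miR-21 binding site, 2000 cells/well. Titrations up to approximately 40 uM, 48 hours; luciferase luminescence read.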
# Rango complex inh = prevents formation of the Rango-importin beta complex. Rango CFP/YFP FRET sensor + importin beta, 45 min. Potency, µM (doses to about 92.2 µM), without a hit: top-dose inhibition of complex formation. actives 0.031% (n = 340,000). AID 540263; active = rising FRET ratio curve, often small or poorly fitted; inconclusive = mostly compound fluorescence or quenching in the first reads; inactive = flat curves in all reads;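 also: potency is read from the fitted curve at half-maximal effect; 0% = DMSO wells and 100% = buffer wells lacking importin beta; nearly all actives have a fitted effect of over 15% in size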
# Target sequence (Q14974 whole entry, looked up): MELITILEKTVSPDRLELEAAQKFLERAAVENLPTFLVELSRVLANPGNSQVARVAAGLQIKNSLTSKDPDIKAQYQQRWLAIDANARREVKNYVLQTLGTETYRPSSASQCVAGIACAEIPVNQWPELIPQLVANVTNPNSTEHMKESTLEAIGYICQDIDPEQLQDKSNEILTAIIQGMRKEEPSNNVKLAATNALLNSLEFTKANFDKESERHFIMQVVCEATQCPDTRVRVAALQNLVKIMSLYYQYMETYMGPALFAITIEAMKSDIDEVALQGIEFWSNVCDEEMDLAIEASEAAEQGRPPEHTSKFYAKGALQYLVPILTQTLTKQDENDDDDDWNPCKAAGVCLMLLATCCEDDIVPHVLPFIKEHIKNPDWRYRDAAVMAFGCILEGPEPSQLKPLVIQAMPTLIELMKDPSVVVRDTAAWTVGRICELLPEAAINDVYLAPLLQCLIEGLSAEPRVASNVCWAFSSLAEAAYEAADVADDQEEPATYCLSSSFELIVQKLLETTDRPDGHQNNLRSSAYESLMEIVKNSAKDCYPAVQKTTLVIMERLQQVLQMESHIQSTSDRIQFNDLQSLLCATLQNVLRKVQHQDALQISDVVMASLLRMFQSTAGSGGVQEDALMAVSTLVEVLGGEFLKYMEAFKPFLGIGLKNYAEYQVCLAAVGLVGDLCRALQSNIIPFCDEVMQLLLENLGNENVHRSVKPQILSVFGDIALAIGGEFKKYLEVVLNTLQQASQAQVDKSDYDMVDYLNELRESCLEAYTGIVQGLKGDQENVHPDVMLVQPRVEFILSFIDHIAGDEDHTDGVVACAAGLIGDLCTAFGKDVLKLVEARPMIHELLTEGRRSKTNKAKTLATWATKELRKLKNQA
#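 FRET biosensor (snurportin 1 IBB flanked by EYFP and cerulean), 50 nM, with compound 5 min, then 0.125 microM importin beta in PBS, 1 mM DTT, 0.02% Tween-20, 0.1% BSA. CFP/YFP ratio read after 45 min at room temperature; pre-read flags interference.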
# GLA inh pH 4.5 = alpha-galactosidase A (human) inhibition, pH 4.5; activity change, negative = inhibition, % at 105 µM; P06280; AID 1467; purified enzyme, 4-MU-alpha-Gal fluorescence, pH 4.5; 230,000 tested, under 10 active; inconclusive = small, poorly fitted or top-dose-only inhibition, or a rising curve; inactive = flat fitted curve, though single readings scatter; no compound was filed as active;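 also: 0% = full activity with enzyme and -100% = basal without enzyme; dose as in the result columns while the protocol names 77 µM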
# * marks the source's active call; other numbers are inactive results; ? = inconclusive; . = no result given.
# Order of values – Rango release inh	miR-21 reporter	Rango complex inh	GLA inh pH 4.5
- O=C(COC(=O)COc1ccccc1F)Nc1ccc(Cl)cn1
  -12.2%	-6.2%	-1.8%	-0.1
- O=C(CSc1nnc(-c2ccc(F)cc2)o1)N1CCCC1
  -4.6%	-20.4%	-0.4%	.
- COc1ccc(C(C)=O)cc1COC(=O)CNC(=O)c1ccc(Cl)cc1
  -6.7%	-6.4%	3.3%	4.2
- COCCCNc1nc2c(-c3cccc(C)c3)nnn2c2ccccc12
  -22.1%	-12.3%	?	5.7
- CCN(CC)S(=O)(=O)c1ccc(OC)c(NC(=O)CCS(=O)(=O)Cc2ccccc2)c1
  -10.0%	2.6%	0.4%	.
- Cc1onc(C(=O)NN)c1-c1csc(COc2ccccc2)n1
  18.5%	-8.5%	1.1%	-12.4
- Cc1cc(NC(=O)CSc2nnc(-c3ccccc3)c(-c3ccccc3)n2)no1
  7.0%	25.0%	-2.0%	4.6
- O=c1[nH]cnc2sc3c(c12)CCCC3
  -2.7%	-2.9%	-0.3%	8.8
- CCOC(=O)N1CCN(C(=O)c2cc3c(=O)n4ccccc4nc3s2)CC1
  -15.3%	-2.4%	1.2%	.
- O=C(COC(=O)c1ccc(Cl)c(S(=O)(=O)N2CCCCC2)c1)NCC1CCCCC1
  -19.8%	.	4.9%	.
- CN(CC(=O)NCCc1ccccc1)S(=O)(=O)c1ccccc1
  -4.2%	-23.7%	0.5%	-11.6
- O=[N+]([O-])c1ccc2nc(-c3ccccc3)oc2c1
  -2.8%	-52.5%	-2.9%	7.3
- CN(CC(=O)Nc1ccc2c(c1)OCCO2)S(=O)(=O)c1ccc(Br)s1
  6.5%	-12.3%	0.5%	-1.2
- C[C@H](NC(=O)c1cc2cc(Cl)ccc2n1C)C(=O)N1CCC[C@H]1C(=O)O
  2.1%	2.9%	0.7%	.
- Cc1ccc(C(=S)N2CCCCCC2)cc1
  6.9%	-0.9%	-0.1%	.

# Single values from the results shown:
# Under Rango release inh, Cc1ccc(C(=S)N2CCCCCC2)cc1 is listed with 6.9%
# Under miR-21 reporter, CCOC(=O)N1CCN(C(=O)c2cc3c(=O)n4ccccc4nc3s2)CC1 is listed with -2.4%

# The results go on:
# Order of values – Rango release inh	miR-21 reporter	Rango complex inh	GLA inh pH 4.5
- O=S(=O)(NCC(c1ccco1)N1CCN(c2ccccc2)CC1)c1ccc(F)cc1 (centres undefined)
  0.7%	0.7%	-4.4%	-7.5
- Cc1cc(C)n2ncc(C(=O)O)c2n1
  17.9%	0.0%	-1.1%	-3.3
- COc1ccccc1C(=O)NNC(=O)C1CC=CCC1 (centres undefined)
  4.3%	-26.5%	2.5%	.
- CC(C)(C)c1nnc2sc(SCC(=O)c3ccc(Cl)cc3)nn2c1=O
  -1.5%	1.3%	-1.8%	-6.2
- CSc1ccccc1NC(=O)c1cccc(S(=O)(=O)N2CCN(C)CC2)c1
  0.6%	-64.4%	4.0%	.
- CC(=O)c1ccccc1OCC(O)Cn1ccnc1 (centres undefined)
  -1.9%	4.0%	5.8%	.
- N#Cc1c(NCCN)nc(NCc2ccccc2)c2c1CCN(Cc1ccccc1)C2
  ?	19.6%	?	-1.5
- CN(NC1OC(=O)c2ccccc21)c1ncc(Cl)cc1C(F)(F)F (centres undefined)
  19.8%	-11.4%	0.4%	-1.8
- CC#CCCC(=O)N1C=Cc2ccccc2C1C#N (centres undefined)
  -11.5%	-1.3%	2.3%	-5.9
- COc1ccc(C(=O)C2CCN(C(=O)Nc3ccc(C)cc3)CC2)cc1
  9.7%	-1.4%	-1.2%	.
- O=C(c1ccccc1)c1ccc2nc(-c3ccco3)c(-c3ccco3)nc2c1
  ?	-26.6%	?	10.8
- Cc1nn(S(=O)(=O)N2CCCCC2)c(C)c1Br
  2.5%	-5.9%	1.8%	-7.2
- Cn1c(SCC(=O)N2CCCCCC2)nc2c(c1=O)SCC2
  12.4%	2.1%	-1.2%	.
- O=C(C1=C(O)C(=O)N(Cc2ccco2)C1c1cccnc1)c1cc2ccccc2o1 (centres undefined)
  ?	-1.2%	-2.0%	-5.7
- COc1ccc(NC(=O)Nc2ccc(OCc3ccccc3)cc2)cn1
  0.9%	0.2%	0.2%	.
- COc1ccc(N(Cc2ccccc2)N=O)cc1
  -9.2%	-14.4%	2.0%	.
- COc1ccc(CC(O)CC2c3c(cc4c(c3OC)OCO4)CCN2C)cc1 (centres undefined)
  9.9%	4.8%	0.6%	.
- O=C(O)c1ccc2oc(=O)c(S(=O)(=O)c3ccccc3)cc2c1
  ?	-3.1%	?	.
- O=S(=O)(c1cnccc1N1CCN(CCO)CC1)N1CCCCC1
  -6.8%	-1.4%	-1.5%	.
- CNC(=O)c1cc2c(ccc3ccccc32)oc1=N
  .	-20.0%	.	-21.0
- CC(C)CC1(C)CNC(=O)NC1
  0.4%	.	-0.6%	.
- CCCNc1nc(C)cc(-c2cc(C(=O)NC3CCCC3)on2)n1
  0.1%	1.0%	1.6%	1.1
- Cc1ccc(S(=O)(=O)NC2CCCC(C(=O)O)C2)cc1 (centres undefined)
  0.2%	-2.7%	4.7%	-8.7
- CCN(CC)c1ccc(/C=N/Nc2cccc(C)c2)c(O)c1
  -4.7%	-33.4%	-5.2%	2.1
- O=C1CN(C(=O)COC(=O)CCC(=O)c2ccc(F)cc2)c2ccccc2N1
  -7.3%	.	3.5%	.
- O=C(Cn1cnc2cc([N+](=O)[O-])ccc2c1=O)NCc1ccc(Cl)cc1
  -2.2%	-15.0%	1.0%	-0.7
- C#CCOCCOCCOCCNc1nc(N2CCN(C(=O)[C@H](CCC(=O)O)n3cc(C(N)Cc4ccc(O)cc4)nn3)CC2)nc(N2CCN(C(=O)[C@H](CCCCN)n3cc(C(N)[C@H](C)CC)nn3)CC2)n1 (some centres undefined)
  .	3.6%	.	-1.6
- COc1ccc(-c2noc(CN(C(=O)c3ccoc3C)C(C)C)n2)cc1
  24.6%	-0.8%	6.2%	.
- O=C(O)CSc1nnc(NC(=O)CN2CCOCC2)s1
  5.9%	-2.1%	-0.8%	.
- Cc1ccc(-c2ccc(/C=N/n3cnnc3)o2)cc1
  0.3%	-5.3%	0.1%	-0.9
- O=C(COC(=O)C1(c2ccc(Cl)cc2)CCCC1)N1CCc2ccccc21
  2.7%	-4.0%	0.5%	-5.3
- Cc1c(NC(=O)/C(C#N)=C\c2cccs2)c(=O)n(-c2ccccc2)n1C
  -28.6%	-2.8%	0.6%	6.8
- O=C1c2ccccc2NC(c2cccc([N+](=O)[O-])c2)N1CCc1ccccc1 (centres undefined)
  2.5%	-37.7%	0.8%	.
- Cc1ccc(C(=O)OCC(=O)c2c(N)n(C)c(=O)n(C)c2=O)cc1S(=O)(=O)N1CCCCC1
  -8.6%	-0.9%	-0.9%	-6.6
- O=C(CSc1nc(NS(=O)(=O)c2ccccc2)cc(=O)[nH]1)Nc1ccc(F)cc1
  -9.3%	-9.0%	-3.5%	-4.6
- CN(Cc1nc2ccccc2[nH]1)C(=O)C1CCC(=O)N(C2CCCC2)C1 (centres undefined)
  -11.6%	-3.6%	2.1%	.
- CC1CCCN(c2ccc(/C=C(\C#N)c3nn(-c4ccccc4)c(N)c3C#N)cc2[N+](=O)[O-])C1 (centres undefined)
  1.3%	9.2%	0.5%	-2.0
- O=C(COc1cc2oc(=O)cc(-c3ccccc3)c2cc1Cl)NCc1ccccn1
  -6.0%	0.4%	?	.
- CCc1cc2ccc(C)cc2nc1SCC(=O)Nc1c[nH]c(=O)[nH]c1=O
  5.5%	0.0%	-0.6%	2.2
- O=C(c1ccccc1)N(Cc1ccccc1)Cc1ccccc1
  -3.5%	-0.9%	0.6%	.
- COc1cccc(Nc2nc3ccccc3n2C(C)C)c1
  -11.7%	5.2%	0.9%	0.5
- COCCNC(=O)c1cc(Sc2nnc(C)s2)nc2ccccc12
  .	8.8%	.	3.0
- Cn1c(NCc2cccs2)nc2ccccc21
  -8.8%	-44.4%	-6.5%	-1.8
- O=C1CSc2ccc(S(=O)(=O)CCC(=O)NC3CCCCC3)cc2N1
  7.4%	-2.4%	-0.1%	.
- Cc1ccc(S(=O)(=O)N(C)C)cc1NC(=O)c1cncc(Br)c1
  13.1%	21.9%	2.4%	-11.1
- CC(OC(=O)c1ccccc1NCCO)C(=O)NC1CCCCC1C (centres undefined)
  1.4%	.	-0.3%	.
- COc1ccc(/C(O)=C2/C(=O)C(=O)N(Cc3cccnc3)C2c2ccncc2)cc1F (centres undefined)
  -16.7%	-1.2%	3.4%	4.6
- CN(C)c1nc(N(C)C)n(C(=O)c2ccc(F)cc2)n1
  3.0%	-7.7%	-0.6%	-1.4
- CN(C)C(CNC(=O)c1coc2ccccc2c1=O)c1ccccc1 (centres undefined)
  2.1%	5.0%	-0.1%	.
- CCCN(CC(=O)Nc1cccc(S(N)(=O)=O)c1)CC(=O)Nc1ccc(F)c(F)c1F
  40.7%	4.3%	?	-26.6
- CCN(CC)S(=O)(=O)c1ccc(/C=C/C(=O)OCC(=O)NC(=O)C2COc3ccccc3O2)cc1 (centres undefined)
  5.1%	.	0.9%	.
- CCCCN(CCCC)c1nc(OC)nc(-n2nnc(C(C)=O)c2C)n1
  -17.9%	-3.2%	-3.6%	-2.4
- CC(=O)c1ccc(N=Cc2c(O)n(-c3cc(Cl)ccc3N3CCOCC3)c(=O)c3ccccc23)cc1
  ?	-2.0%	?	-12.1
- Cc1cc([N+](=O)[O-])nn1CC(=O)N(C)C1CCCCC1
  3.2%	-0.8%	2.0%	.
- O=C(COC(=O)/C=C/c1ccc2c(c1)OCO2)Nc1ccc(S(=O)(=O)N2CCCC2)cc1
  -0.3%	-5.0%	-4.6%	0.6
- O/N=C1\CCCc2ccc(Cl)cc21
  8.1%	-1.4%	6.4%	-2.0
- NC(=O)CSc1nnc2ccc(-c3ccc(Cl)cc3)nn12
  12.8%	-2.2%	2.0%	-2.6
- CCOc1ccccc1N1CCN(CC(O)COCc2cccs2)CC1 (centres undefined)
  -21.3%	-0.1%	-0.5%	.
- COc1ccc2c(C)cc3nnnn3c2c1
  -24.4%	-3.2%	-2.8%	.
- CCOc1ccccc1NC(=O)C1CCCN(S(=O)(=O)c2ccccc2)C1 (centres undefined)
  2.7%	0.1%	1.7%	.

# Going on with the list.
# Order of values – Rango release inh	miR-21 reporter	Rango complex inh	GLA inh pH 4.5
- COc1cccc(OC)c1OCCNCC1CSc2ccccc2O1 (centres undefined)
  -0.4%	.	?	-5.5
- Cc1cccc(N(Cc2ccccc2)C(=O)CN2C(=O)NC3(CCCC3)C2=O)c1
  2.2%	.	-3.3%	.
- COCCn1c(SCC(=O)NCc2ccco2)nnc1-c1c[nH]c2ccccc12
  1.3%	-6.2%	5.2%	6.8
- Cc1c(Cl)cccc1NC(=O)c1cc(C2CC2)on1
  -14.2%	-57.1%	0.2%	-0.5
- COc1ccc(C(=O)Nc2ccc(Cl)c(S(=O)(=O)Nc3ccccc3OC)c2)cc1
  0.7%	?	-0.8%	2.9
- Cc1ccc(NCCC(=O)c2cccs2)cc1Cl
  1.3%	-16.6%	-9.1%	-6.6
- COc1ccc2c(c1)nc(SCC(C)O)n2C (centres undefined)
  -3.3%	-20.5%	0.3%	0.4
- O=C(CNc1ccccc1)N/N=C/c1ccc2c(c1)OCCO2
  -6.2%	-28.3%	2.6%	-9.8
- Brc1ccc2ncc3ccccc3c2c1
  0.6%	.	-4.4%	.
- Cc1ccccc1-c1nc(CS(=O)(=O)CC(=O)Nc2cc(F)ccc2F)c(C)o1
  0.9%	-6.7%	3.5%	-4.5
- C=CCOc1ccc(CNCc2cccnc2)cc1OCC
  19.0%	-0.5%	0.7%	.
- CN(CC(=O)Nc1ccc(Cl)c(C(F)(F)F)c1)C(=O)C1CCN(C(=O)c2ccc(Cl)cc2)CC1
  5.4%	.	0.0%	.
- CC1=NCCN1S(=O)(=O)c1cc([N+](=O)[O-])ccc1Cl
  -0.6%	-1.3%	0.3%	-0.6
- Cc1ccccc1OCC(=O)OCC(=O)Nc1cc(S(=O)(=O)N2CCCCC2)ccc1Cl
  3.6%	.	-0.8%	.

# The list is partial. The share of hits here may be higher or lower than overall.
